Compound activity deposited in PubChem by several laboratories.
HNF4A DNA FP – change in binding of human HNF4 alpha to DNA; P41235; HNF4a-FITC DNA binding, fluorescence polarization, 1 h; activity change, % at 10 µM; 0.3% of 360,000 active; AID 1224865; in the data active = activity change above about 30%, passing the limit was not always enough;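 note: controls were the assay level and a saturating level of protein; the project sought stronger binding though the title names inhibitors; some compounds called inactive have numbers as strong as hits; positive values seem to mean higher polarization but the record does not say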
Target sequence (P41235 whole entry, looked up): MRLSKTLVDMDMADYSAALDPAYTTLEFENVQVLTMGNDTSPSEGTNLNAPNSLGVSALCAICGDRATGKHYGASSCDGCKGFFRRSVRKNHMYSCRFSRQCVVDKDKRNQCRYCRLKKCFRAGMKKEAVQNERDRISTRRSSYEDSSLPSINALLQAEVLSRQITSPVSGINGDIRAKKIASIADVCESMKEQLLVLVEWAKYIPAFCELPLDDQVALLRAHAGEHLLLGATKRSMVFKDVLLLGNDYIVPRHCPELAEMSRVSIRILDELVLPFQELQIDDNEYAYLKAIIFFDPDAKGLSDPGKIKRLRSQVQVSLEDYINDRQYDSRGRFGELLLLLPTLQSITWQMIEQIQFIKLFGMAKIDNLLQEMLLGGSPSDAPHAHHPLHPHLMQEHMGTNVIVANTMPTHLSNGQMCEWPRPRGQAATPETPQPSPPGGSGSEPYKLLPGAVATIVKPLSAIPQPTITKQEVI
ALR H2O2 inh – blocks human ALR sulfhydryl oxidase activity | P55789 | purified ALR, DTT oxidation, H2O2 HRP-luminol luminescence | inhibition, % (concentration not given with the values) | 3.8% of 290,000 active | AID 485317;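 active = mean and each replicate at 75% or more; inconclusive = only one of the two met; inactive = neither met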;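 note: stock transfer was 7.5 nL into about 7.5 µL; 0% = neutral wells and 100% = wells with inactivated enzyme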
FGF22 binding – binders of recombinant human FGF22 by thermal shift. Q9HCT0. SYPRO orange fluorescence; percent of sucrose octasulfate shift, DMSO zero. calls only at 9.99 µM. 1.5% of 340,000 active. AID 651658;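 active = melting point raised past a set limit in the mean and every replicate; inconclusive = no clear call; three in four hits are not shown here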
Vif TR-FRET – inhibitors of Vif binding to APOBEC3G peptide, primary screen, biochemical, TR-FRET, GST-Vif 1-94, biotin-A3G peptide, dose response retest (AID 1117319). TR-FRET GST-Vif / biotin-A3G peptide binding; higher % means a stronger effect; test concentration not given here; strong numbers were not always called active. 0.57% of 260,000 active. one-dose inhibition, %; IC50 in µM for titrated hits;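 active = above the screen mean plus three standard deviations and confirmed in dose response; inconclusive = results disagree or hit not tested in dose response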;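 note: Vif residues 1-94 fused to GST binding biotinylated APOBEC3G peptide 110-148; 0% = full assay without inhibitor and 100% = GST in place of GST-Vif; retest series ran down from 100 µM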
AF4-AF9 inh – MLL-AF4/AF9 protein interaction inhibition; AlphaScreen, biotin-AF4 peptide binding to FLAG-AF9; 0.47% of 350,000 active; inhibition, % at 10 µM; AID 651704; P42568;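 active = every replicate reaching a set inhibition limit, whatever the replicate mean, cut at about 25% in these data; inconclusive = mean inhibition reaches that limit but some replicates miss it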;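 note: 0% = plate neutral control median and 100% = total signal loss; the record names both 10 and 1 µM as test concentration; the first replicate is given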
Target sequence (P42568 whole entry, looked up): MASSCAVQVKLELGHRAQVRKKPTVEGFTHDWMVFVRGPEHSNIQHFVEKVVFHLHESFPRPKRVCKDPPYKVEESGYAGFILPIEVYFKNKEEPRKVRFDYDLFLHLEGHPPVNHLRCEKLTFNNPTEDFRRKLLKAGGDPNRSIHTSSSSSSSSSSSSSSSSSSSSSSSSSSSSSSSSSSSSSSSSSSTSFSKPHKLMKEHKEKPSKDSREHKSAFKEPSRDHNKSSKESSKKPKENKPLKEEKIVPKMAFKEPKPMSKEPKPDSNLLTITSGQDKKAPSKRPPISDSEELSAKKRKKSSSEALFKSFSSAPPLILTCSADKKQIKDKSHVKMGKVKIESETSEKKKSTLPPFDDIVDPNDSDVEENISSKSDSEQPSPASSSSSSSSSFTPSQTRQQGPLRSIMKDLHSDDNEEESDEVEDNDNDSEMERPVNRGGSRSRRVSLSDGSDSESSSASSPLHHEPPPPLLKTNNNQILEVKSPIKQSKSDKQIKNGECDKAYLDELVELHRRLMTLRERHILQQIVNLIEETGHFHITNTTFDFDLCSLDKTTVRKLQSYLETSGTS
Ecoli growth – blocks Escherichia coli growth. OD600, 23 h; stronger effect = lower value. OD600 absorbance (no concentration beside the values). 0.21% of 330,000 active. AID 1053175;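 active = OD600 absorbance below the run mean of sample wells minus 3.6 SD, in any replicate, cut at about 0.56 in these data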;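 note: stock transfer was 300 nL into about 60 µL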
rRNA inh HTS – inhibits bacterial ribosomal RNA function over humanized ribosomes; GFP signal change (wild-type ribosome), % (no concentration beside the values); E. coli WT GFP vs humanized-ribosome RFP mutants, fluorescence, 24 h; stronger effect = lower value; DMSO median 0, no signal -100; 1.6% of 350,000 active;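 active = significant combined selectivity score with lowered wild-type GFP, culture density cut under 30%, mutant RFP and density less affected; inactive = any of these conditions unmet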; note: one replicate is shown; some compounds called inactive have numbers as strong as hits
rRNA inh HTS OD600 – also measured in rRNA inh HTS; calls as there; OD600 change, %; measured here: OD600 growth;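 optical density of the mix in the first replicate; 0 = DMSO median and -100 = no signal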
rRNA inh HTS RFP – second read-out of rRNA inh HTS, no call of its own (marks repeat the call); RFP signal change, %; measured here: RFP humanized mutant strains;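 first replicate; 0 = DMSO median and -100 = no signal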
An asterisk follows results filed as active; i = inactive; ? = inconclusive; . = no result given. Only part of the results is shown, so the mix of outcomes need not match the whole.

SMILES	HNF4A DNA FP	ALR H2O2 inh	FGF22 binding	Vif TR-FRET	AF4-AF9 inh	Ecoli growth	rRNA inh HTS	rRNA inh HTS OD600	rRNA inh HTS RFP
CN1C(=O)c2cc(NC(=O)c3ccc(Cl)cc3)ccc2OC[C@H]2O[C@@H](CC(=O)NCc3cccc(F)c3)CC[C@H]21	.	.	i	.	-0.8	.	-11	-21	0.1
C/C(=N\O)C(=O)NCCCNCCCN(C)C	-4.2	-14	.	-3%	.	.	.	.	.
COc1ccccc1C#Cc1cnc2c(c1)C(=O)N([C@@H](C)CO)C[C@H](C)[C@H](CN(C)C)O2	.	.	i	.	3.6	.	1	1	-2.7
c1ccc(C(c2ccccn2)c2ccccn2)cc1	-5.6	-6	i	-1%	3.4	0.69	-22	-26	-3.1
Cc1ccc([C@@H]2CC(=O)[C@@H]3CN(S(=O)(=O)c4ccc(C)cc4)[C@H](c4ccccc4)C[C@@H]3N2S(=O)(=O)c2ccc(C)cc2)cc1	-0.6	.	i	.	0.6	.	.	.	.
Cc1noc(C)c1NC(=O)N(C)C[C@@H]1Oc2ccc(NC(=O)Nc3cccc4ccccc34)cc2CC(=O)N([C@@H](C)CO)C[C@@H]1C	.	.	i	.	-0.8	.	4	-7	2.4
Cc1cc(C)nc(SCC(=O)Nc2ncc3c(n2)CCCC3=O)n1	3.3	.	.	-4%	.	0.67	.	.	.
Cc1cccc(Cn2c(O)c(N=NC(=S)Nc3ccccc3F)c3ccccc32)c1	0.2	-2	i	-7%	8.5	0.7	9	5	4.3
COc1ccc(CCC(=O)NNC(=O)c2ccc(F)cc2)cc1	2.0	-12	i	.	-0.6	0.71	10	6	-2.7
CC(C)NC(=O)C1CCN(S(=O)(=O)c2ccc(N3CCCC3=O)cc2)CC1	0.2	1	i	-3%	-9.0	0.62	17	7	-1.3
Cc1ccc(C(=O)Nc2ncccc2C)o1	1.0	.	i	.	2.4	0.66	0	-3	-2.8
O=S(=O)(NCCN1CCOCC1)c1ccc2ccccc2c1	-2.4	-8	i	.	0.9	0.62	6	12	-1.2
CC(Oc1cc(-c2ccccc2)cc2ccccc12)C(=O)N1CCOCC1 (centres undefined)	3.6	-16	.	-4%	.	0.68	.	.	.
Cc1ccc(OCCOc2ccc(S(=O)(=O)N3CCCC3)cc2C(N)=O)cc1	2.4	-32	i	.	0.7	0.65	.	.	.
CCOc1cc(N2CCOCC2)c(OCC)cc1NC(=O)COc1ccccc1[N+](=O)[O-]	1.4	-22	i	-2%	0.8	0.72	1	3	-3.2
COC(=O)c1cc(NC(=O)c2cc(-c3ccc(C(F)(F)F)cc3)oc2C(F)(F)F)ccc1N1CCOCC1	0.0	-4	i	16%	4.0	0.7	3	9	-0.4
CC(C)NC(=O)N[C@H]1CC[C@@H](CCNS(=O)(=O)c2ccc(Cl)cc2)O[C@@H]1CO	.	.	i	.	-1.3	.	-1	-3	-1.9
COc1ccc2c3c([nH]c2c1)[C@H](CO)N(C(=O)c1ccccc1)CC31CCN(Cc2cccnc2)CC1	.	.	i	.	2.7	.	2	4	-2.5
O=C(NCCCN1CCOCC1)c1cc(-c2cccc(O)c2)on1	1.0	.	i	.	2.1	0.66	2	5	-1.2
C[C@H](NC(=O)C[C@H]1CC[C@@H](NS(=O)(=O)c2cccc(F)c2)[C@@H](CO)O1)c1ccccc1	.	.	i	.	-1.7	.	-7	-5	-0.8
O=C(NC1CCCCC1)C(c1ccccc1)N1CCC2(CC1)OCCO2 (centres undefined)	0.1	-2	.	-1%	.	0.68	.	.	.
O=C1CCCN2N=C(SCC(=O)Nc3nc4ccccc4s3)SC2=N1	3.3	-2	i	1%	-2.9	0.68	17	11	2.4
O=C(Cn1c(C(F)(F)F)nc2ccccc21)N1CCCC1	-2.9	-8	.	13%	.	0.73	.	.	.
CCOC(=O)C1=CCC(c2ccc(Cl)cc2)N(S(=O)(=O)c2ccc(C)cc2)C1 (centres undefined)	2.1	.	i	.	-2.2	.	12	16	0.9
COc1ccc(CNC(=O)C2CCN(S(=O)(=O)N3CCCCC3)CC2)c(OC)c1	-1.4	2	i	-2%	-0.6	0.67	7	10	-2.5
CCCN(C)C[C@@H]1Oc2cc(-c3cccnc3)ccc2S(=O)(=O)N([C@@H](C)CO)C[C@@H]1C	.	.	i	.	-2.9	.	0	-3	-2.2
O=C(Cn1ncc2c1-c1ccccc1OC2)N1CCN(c2ccccn2)CC1	-3.8	4	i	8%	-8.7	0.69	5	6	-8.3
O=C(c1cc2ccccc2oc1=O)N(Cc1cccs1)Cc1ccccc1Cl	-3.6	-1	.	4%	.	0.73	.	.	.
CC1CN(C(=O)COC(=O)c2ccc(S(=O)(=O)N(C)C)cc2)CC(C)O1 (centres undefined)	2.5	.	i	-13%	-3.4	0.73	8	7	-1.7
CC(C)CC(=O)Nc1cccc(NC(=O)c2ccccc2Cl)c1	-1.3	-5	.	-8%	.	0.62	.	.	.
CCN(CC)c1ccc(/C=N\NC(N)=O)cc1	-1.7	99*	.	17%	.	.	.	.	.
CCc1nnc(NC(=O)CCC(=O)NCC2CCCO2)s1 (centres undefined)	-0.6	0	.	1%	.	0.79	.	.	.
Cc1ccc(-c2nc3ccccc3c(=O)n2-c2c(C)n(C)n(-c3ccccc3)c2=O)cc1	-6.4	-2	i	-15%	0.0	0.69	4	1	-1.3
Cc1cc(Cl)c(S(=O)(=O)Nc2ccon2)cc1OCC(=O)NC1CCCCC1	1.2	-4	.	11%	.	0.74	.	.	.
CCc1noc(C)c1C(=O)Nc1nc2c(F)cc(F)cc2s1	-2.1	46	i	-7%	-0.5	0.69	.	.	.
CCOc1ccc(S(=O)(=O)NN=C2CCN(C(C)=O)CC2)cc1	5.0	5	i	-2%	1.3	0.63	9	-1	-0.4
CN(C)c1cccc(C(=O)n2cc(C(=O)c3cc(F)ccc3O)cn2)c1	-0.2	-12	.	?	.	0.75	.	.	.
O=C(NC(Cc1ccccc1)C(=O)O)/C(=C/c1ccccc1)NC(=O)c1ccc(Br)o1 (centres undefined)	1.5	1	i	.	-0.8	0.69	-1	6	0.3
CSc1ccc(CN2CCCN(C)CC2)cc1	-2.4	-8	i	.	-0.2	0.65	10	14	11
CCN(CC(=O)NCc1ccccn1)S(=O)(=O)c1ccc(Cl)cc1	-0.3	-18	.	?	.	0.77	.	.	.
CCOc1ccc(NC(=O)NNC(=O)c2ccc(CC)s2)cc1	0.8	.	i	-1%	-3.6	0.67	16	12	2.6
COC(=O)CSc1nccc(-c2cccs2)n1	-0.4	2	i	9%	0.9	0.68	7	5	2.0
O=C(C[C@H]1CC[C@@H]2[C@H](COC[C@H](O)CN2C(=O)c2ccccn2)O1)NC1CCC1	.	.	i	.	-6.1	.	3	-5	-1.8
O=CN/C=C/c1cc(O)ccc1O	-2.3	98*	i	1.7µM*	-4.3	0.66	.	.	.
Cc1ccc(S(=O)(=O)CCC(=O)OCC(=O)N2CCN(S(=O)(=O)c3ccccc3)CC2)cc1	1.7	-5	.	4%	0.0	0.69	3	4	-1.2
CCOC(=O)C1=C(C)N(C[C@@H]2CC[C@@H](Cc3ccc(-c4ccccc4)cc3)O2)C(=O)NC1c1ccc(-c2ccccc2)cc1 (some centres undefined)	1.2	.	i	2%	1.4	.	7	9	-2.6
CCCN(Cc1nnc(-c2ccccc2Cl)o1)C(=O)c1cc2ccccc2o1	0.9	4	i	5%	-1.9	0.64	-36	-54	-5.9
C=CCOC(=O)Nc1nc(CCNC(=O)OC(C)(C)C)c(C(=O)O)s1	1.7	.	i	.	-2.9	.	5	9	-4.9
Clc1ccc(-n2nnnc2SCc2cn3ccccc3n2)cc1	-1.7	4	.	-2%	.	0.67	.	.	.
O=C(C[C@@H]1CC[C@H](NC(=O)NC2CCCC2)[C@H](CO)O1)NCc1ccc(F)cc1	.	.	i	.	-1.3	.	0	-11	-0.2
C[C@@H]1CN([C@@H](C)CO)C(=O)Cc2cc(NS(=O)(=O)c3ccccc3)ccc2O[C@@H]1CN(C)Cc1ccc(C(=O)O)cc1	.	.	i	.	-0.9	.	3	9	-0.5
Cn1c(=O)c2c(ncn2CC(=O)OCC(=O)NC2CCCc3ccccc32)n(C)c1=O (centres undefined)	2.4	.	.	10%	.	0.68	.	.	.
C/C=C/c1ccc2c(c1)O[C@H](CN(C)Cc1cccnc1)[C@H](C)CN([C@H](C)CO)S2(=O)=O	.	.	i	.	1.9	.	-5	4	-5.2
C[C@H]1CN([C@@H](C)CO)C(=O)CCCn2cc(nn2)CO[C@H]1CN(C)C(=O)Nc1cccc(F)c1	.	.	i	.	-2.4	.	1	3	-2.5
O=C(O)COc1ccccc1/C=N/NC(=O)CSc1nnc(SCc2ccc(Cl)cc2)s1	-9.0	.	i	?	-5.4	.	0	-11	3.5
C[C@@H](NC(=O)C[C@H]1CC[C@H]2[C@@H](COC[C@@H](O)CN2C(=O)Nc2ccccc2)O1)c1ccccc1	.	.	i	.	-1.5	.	1	7	-2.2
CCCS(=O)(=O)NC(=O)C1(C)CCN1C(=O)Cc1ccc(-c2ccccc2)cc1 (centres undefined)	-0.1	.	i	.	-2.4	.	-5	1	2.0
CC(O)Cn1cnc2c1c(=O)n(C)c(=O)n2C (centres undefined)	2.0	-2	i	?	-1.3	0.65	12	17	-0.8
COc1cccc(Oc2ccc(S(=O)(=O)N3CCOCC3)cc2[N+](=O)[O-])c1	1.1	1	i	-1%	4.4	0.67	-11	6	-3.1
O=C(c1ccc(COc2ccc(Cl)cc2Cl)o1)N1CCCC1	-2.1	-1	i	.	0.2	0.65	-52	-82	-20

By substructure, the compounds so far containing a nitro group on carbon (2)
SMILES	HNF4A DNA FP	ALR H2O2 inh	FGF22 binding	Vif TR-FRET	AF4-AF9 inh	Ecoli growth	rRNA inh HTS	rRNA inh HTS OD600	rRNA inh HTS RFP
CCOc1cc(N2CCOCC2)c(OCC)cc1NC(=O)COc1ccccc1[N+](=O)[O-]	1.4	-22	i	-2%	0.8	0.72	1	3	-3.2
COc1cccc(Oc2ccc(S(=O)(=O)N3CCOCC3)cc2[N+](=O)[O-])c1	1.1	1	i	-1%	4.4	0.67	-11	6	-3.1

A different layout for part of the listing above:
| SMILES | HNF4A DNA FP | ALR H2O2 inh | FGF22 binding | Vif TR-FRET | AF4-AF9 inh | Ecoli growth | rRNA inh HTS | rRNA inh HTS OD600 | rRNA inh HTS RFP |
| --- | --- | --- | --- | --- | --- | --- | --- | --- | --- |
| CCOC(=O)C1=C(C)N(C[C@@H]2CC[C@@H](Cc3ccc(-c4ccccc4)cc3)O2)C(=O)NC1c1ccc(-c2ccccc2)cc1 (some centres undefined) | 1.2 | . | i | 2% | 1.4 | . | 7 | 9 | -2.6 |
| O=CN/C=C/c1cc(O)ccc1O | -2.3 | 98* | i | 1.7µM* | -4.3 | 0.66 | . | . | . |

Additional compounds:
SMILES	HNF4A DNA FP	ALR H2O2 inh	FGF22 binding	Vif TR-FRET	AF4-AF9 inh	Ecoli growth	rRNA inh HTS	rRNA inh HTS OD600	rRNA inh HTS RFP
CCn1cc(/C=N/NC(=O)c2ccc3c(c2)OCO3)c(C)n1	1.6	-1	.	1%	.	.	.	.	.
O=C(COC(=O)c1cccc(C(=O)OCC(=O)c2ccc(Br)cc2)n1)c1ccc(Br)cc1	-0.8	-2	.	2%	.	0.73	.	.	.
COc1ccc(NC(=O)CC23CC4CC(C2)CC(n2nnc(C)n2)(C4)C3)cc1	-1.0	-6	i	0%	9.8	0.68	-1	-2	-2.5
C=C(C)C(=O)NNc1ccccc1	-1.6	31	i	-11%	2.9	0.65	4	14	1.6
CC(=O)c1cccc(OCc2cc(C(=O)N(C)Cc3ccc(C)o3)no2)c1	-2.3	13	i	.	-9.3	0.66	-24	-13	-3.9
O=C(NCCN1CCOCC1)C(=O)NCc1ccco1	-2.1	-1	i	2%	-13	0.67	24	11	3.1
